NOMO-1 viab = NOMO-1 AML cell viability reduction, primary screen, STK33 inhibitor project, CellTiter-Glo luminescence; NOMO-1 AML viability, 72 h; 37,000 tested, 7.5% active; inhibition, % (no concentration beside the values);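 active = most replicates above 80%; inconclusive = exactly half above 80%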;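 note: wells of about 30 µL received 25 nL stock; 0% = median of vehicle wells and 100% = reference inhibitor level; the first replicate is given; inactives centre near 10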
* = called active by the depositor; ? = inconclusive. This is a subset (hit frequency here may not be typical).

The opening seven compounds (preview)
SMILES	NOMO-1 viab
CC(C)NC(=O)Nc1ccc2c(c1)CC(=O)N([C@H](C)CO)C[C@@H](C)[C@@H](CN(C)S(C)(=O)=O)O2	11
CC(C)(C)c1cc(C(=O)CSc2nc3ccccc3[nH]2)cc(C(C)(C)C)c1O	102*
C[C@@H]1CN([C@H](C)CO)C(=O)c2cccc(NC(=O)C3CC3)c2O[C@@H]1CN(C)S(=O)(=O)c1cn(C)cn1	5
Cc1cc(C)c(C)c(OCC(=O)NCc2ccco2)c1	24
CNC[C@H]1OCCCC[C@@H](C)Oc2ccc(NC(=O)NC(C)C)cc2C(=O)N([C@H](C)CO)C[C@@H]1C	14
Cc1ccc(S(=O)(=O)Nc2ccc3c(c2)CC(=O)N([C@@H](C)CO)C[C@H](C)[C@H](CN(C)Cc2ccc(C(F)(F)F)cc2)O3)cc1	112*
C[C@@H]1CN([C@H](C)CO)C(=O)Cc2cc(NS(=O)(=O)c3ccc(F)cc3)ccc2O[C@@H]1CN(C)Cc1ccc(C(F)(F)F)cc1	111*

This part in full, repeating the preview:
SMILES	NOMO-1 viab
CC(C)NC(=O)Nc1ccc2c(c1)CC(=O)N([C@H](C)CO)C[C@@H](C)[C@@H](CN(C)S(C)(=O)=O)O2	11
CC(C)(C)c1cc(C(=O)CSc2nc3ccccc3[nH]2)cc(C(C)(C)C)c1O	102*
C[C@@H]1CN([C@H](C)CO)C(=O)c2cccc(NC(=O)C3CC3)c2O[C@@H]1CN(C)S(=O)(=O)c1cn(C)cn1	5
Cc1cc(C)c(C)c(OCC(=O)NCc2ccco2)c1	24
CNC[C@H]1OCCCC[C@@H](C)Oc2ccc(NC(=O)NC(C)C)cc2C(=O)N([C@H](C)CO)C[C@@H]1C	14
Cc1ccc(S(=O)(=O)Nc2ccc3c(c2)CC(=O)N([C@@H](C)CO)C[C@H](C)[C@H](CN(C)Cc2ccc(C(F)(F)F)cc2)O3)cc1	112*
C[C@@H]1CN([C@H](C)CO)C(=O)Cc2cc(NS(=O)(=O)c3ccc(F)cc3)ccc2O[C@@H]1CN(C)Cc1ccc(C(F)(F)F)cc1	111*
COc1ccccc1Nc1nc(N)nc(CSc2ncccn2)n1	27
COc1cc(O)cc(/C=C/c2ccccc2)c1	11
O=C(COc1ccccc1)Nc1ccc2nn(-c3ccc(Cl)cc3)nc2c1	16
CCOc1cc(S(=O)(=O)NCc2cccnc2)ccc1Cl	28
COc1ccc(Cl)cc1NC(=O)COc1ccccc1OC	23
Cc1ccc(S(=O)(=O)Nc2ccc3c(c2)C(=O)N([C@@H](C)CO)C[C@@H](C)[C@@H](CN(C)C(=O)NC(C)C)O3)cc1	-9
C[C@@H]1CN([C@H](C)CO)C(=O)c2cccc(NS(=O)(=O)c3ccc(F)cc3)c2O[C@H]1CN(C)S(=O)(=O)c1ccc(Cl)cc1	-3
COc1ccc(NC(=O)Nc2ccc3c(c2)C(=O)N([C@@H](C)CO)C[C@H](C)[C@@H](CN(C)Cc2ccc(Oc4ccccc4)cc2)O3)cc1	33

Four entries drawn at random from the list so far:
SMILES	NOMO-1 viab
C[C@@H]1CN([C@H](C)CO)C(=O)c2cccc(NS(=O)(=O)c3ccc(F)cc3)c2O[C@H]1CN(C)S(=O)(=O)c1ccc(Cl)cc1	-3
C[C@@H]1CN([C@H](C)CO)C(=O)Cc2cc(NS(=O)(=O)c3ccc(F)cc3)ccc2O[C@@H]1CN(C)Cc1ccc(C(F)(F)F)cc1	111*
COc1cc(O)cc(/C=C/c2ccccc2)c1	11
CCOc1cc(S(=O)(=O)NCc2cccnc2)ccc1Cl	28

The list goes on:
SMILES	NOMO-1 viab
C[C@H]1CN([C@@H](C)CO)C(=O)c2cccc(NC(=O)Nc3cccc4ccccc34)c2O[C@H]1CN(C)C(=O)Nc1ccc(C(F)(F)F)cc1	109*
CC(C)CNC(=O)C(=O)NCc1ccccn1	-1
COC(=O)c1c(NC(=S)Nc2ccn(C)n2)sc(C)c1-c1ccccc1	3
CC(C)c1ccc(NCC(O)CSc2ccccc2)cc1 (centres undefined)	110*
COc1ccc(Cl)cc1NC(=O)C(C)N(c1ccc(C)cc1)S(C)(=O)=O (centres undefined)	31
CNc1[nH]cnc(=S)c1N	28
Cc1noc(C)c1S(=O)(=O)Nc1ccc2c(c1)C(=O)N([C@@H](C)CO)C[C@@H](C)[C@@H](CN(C)Cc1ccccc1)O2	2
O=C(N[C@H](COC(=O)[C@H](Cc1ccccc1)NC(=O)c1ccccc1)Cc1ccccc1)c1ccccc1	?
C[C@@H]1CN([C@@H](C)CO)C(=O)Cc2cc(NC(=O)c3ccncc3)ccc2O[C@@H]1CN(C)C(=O)Nc1ccccc1	-4
Cc1c(Br)ccc(NC(=O)CSc2nnnn2-c2ccccc2)c1C	26
Cc1ccc(NC(=O)C(C)NS(=O)(=O)c2ccc(Cl)cc2)cc1Cl (centres undefined)	8
COc1ccc(NC(=O)N(C)C[C@H]2Oc3ccc(NC(=O)Nc4ccc5c(c4)OCO5)cc3C(=O)N([C@H](C)CO)C[C@@H]2C)cc1	-14
C[C@H](CO)N1C[C@H](C)[C@@H](CN(C)C(=O)Nc2ccc3c(c2)OCO3)Oc2ccc(NC(=O)Cc3cn(C)c4ccccc34)cc2C1=O	19
CC(=O)Oc1ccc(C(=O)c2ccccc2)c(OC(C)=O)c1	23
C[C@H](CO)N1C[C@H](C)[C@H](CN(C)CC2CC2)Oc2c(NC(=O)C3CCCCC3)cccc2C1=O	35
Cc1noc(C)c1S(=O)(=O)Nc1ccc2c(c1)C(=O)N([C@@H](C)CO)C[C@@H](C)[C@@H](CN(C)S(=O)(=O)c1c(C)noc1C)O2	8
Cc1ccc(C)c(OCC(O)CN2CCN(CCO)CC2)c1 (centres undefined)	14
C[C@H](CO)N1C[C@H](C)[C@H](CN(C)Cc2ccccc2)Oc2c(NC(=O)c3nc4ccccc4s3)cccc2C1=O	45
C[C@@H]1CN([C@@H](C)CO)C(=O)c2cc(NC(=O)NC3CCCCC3)ccc2O[C@H]1CN(C)C(=O)Nc1ccccc1	6
O=C(CNS(=O)(=O)c1cc(Cl)ccc1Cl)Nc1cccc([N+](=O)[O-])c1	22
COc1cc(CO)ccc1OCC(=O)Nc1ccccc1F	-6
NC(=O)CS(=O)(=O)c1nc2ccccc2n1Cc1ccccc1F	75
O=C(O)CCNC(=O)c1cncc(Br)c1	37
Cc1noc(C)c1NC(=O)Nc1ccc2c(c1)C(=O)N([C@H](C)CO)C[C@H](C)[C@@H](CN(C)C(=O)NC(C)C)O2	-4
COc1ccc(NC(=O)c2ccccc2OCC(=O)Nc2cccc(C)c2C)c(C)c1	22
O=C(CNS(=O)(=O)c1ccccc1)Nc1cccc([N+](=O)[O-])c1	-16
C[C@H]1CN([C@@H](C)CO)C(=O)c2cccc(NC(=O)c3ccc(-c4nccs4)cc3)c2O[C@H]1CN(C)C(=O)Nc1ccc2c(c1)OCO2	4
C[C@H]1CN([C@@H](C)CO)C(=O)c2cccc(NS(C)(=O)=O)c2O[C@H]1CN(C)S(=O)(=O)c1ccc(F)cc1	1
O=C(COc1ccc([N+](=O)[O-])cc1)Nc1cccc(O)c1	3
Cc1noc(C)c1S(=O)(=O)N(C)C[C@H]1Oc2ccc(NS(=O)(=O)c3ccc(F)cc3)cc2CC(=O)N([C@@H](C)CO)C[C@@H]1C	-16
Cc1noc(C)c1NC(=O)Nc1ccc2c(c1)CC(=O)N([C@@H](C)CO)C[C@H](C)[C@@H](CN(C)C(=O)Nc1ccc3c(c1)OCO3)O2	-14
C[C@@H]1CCCCO[C@H](CN(C)C(=O)Nc2ccc(F)cc2)[C@@H](C)CN([C@H](C)CO)C(=O)c2cc(NC(=O)Cc3ccccc3)ccc2O1	5
CC(=O)Nc1ccc(S(=O)(=O)N(C)C2CCCCC2)cc1	24
C[C@@H]1CCCCO[C@H](CN(C)CC2CCCCC2)[C@@H](C)CN([C@H](C)CO)C(=O)c2cc(NS(C)(=O)=O)ccc2O1	15
C[C@H](CO)N1C[C@H](C)[C@@H](CN(C)Cc2ccc(C(=O)O)cc2)Oc2c(NC(=O)c3cnccn3)cccc2C1=O	-11
Cc1cc(Br)ccc1NC(=O)Cn1nc(C)c([N+](=O)[O-])c1C	7
C[C@H]1CN([C@@H](C)CO)C(=O)Cc2cc(N(C)C)ccc2O[C@@H]1CN(C)C(=O)Nc1ccc2c(c1)OCO2	3
CCOC(=O)c1sc(N2CCCCC2)c2c1CC(C)(C)CC2=O	43
Cc1noc(C)c1S(=O)(=O)Nc1ccc2c(c1)CC(=O)N([C@H](C)CO)C[C@@H](C)[C@H](CN(C)C(=O)Nc1ccccc1)O2	-16
Cc1c(C(=O)C2C(=O)C(=O)N(Cc3cccnc3)C2c2ccccn2)cnn1-c1ccccc1 (centres undefined)	-5
Cc1noc(C)c1NC(=O)N(C)C[C@H]1Oc2ccc(NC(=O)c3ccncc3)cc2C(=O)N([C@H](C)CO)C[C@@H]1C	-12
C[C@H]1CN([C@@H](C)CO)C(=O)Cc2cc(NC(=O)CCC(F)(F)F)ccc2O[C@@H]1CN(C)Cc1ccccc1	12
C[C@@H]1CCCCO[C@H](CN(C)C(=O)CCC(F)(F)F)[C@@H](C)CN([C@H](C)CO)C(=O)c2cc(N(C)C)ccc2O1	-10
Cc1cccc(NC(=O)c2ccccc2NC(=O)COc2cccc([N+](=O)[O-])c2)c1C	105*
CCOC(=O)c1sc(S(C)(=O)=O)c2c1CC(C)(C)C/C2=N/O	55
Cc1sc2nc(SCC(=O)c3cccs3)n(Cc3ccco3)c(=O)c2c1C	25
O=C(Oc1cc(OC(=O)c2ccccc2)c2c(c1)O[C@H](c1ccc(OC(=O)c3ccccc3)c(OC(=O)c3ccccc3)c1)[C@@H](OC(=O)c1ccccc1)C2)c1ccccc1	-10
C[C@@H]1CN([C@H](C)CO)C(=O)c2cc(NS(=O)(=O)c3ccc(F)cc3)ccc2O[C@H]1CN(C)C(=O)Nc1cccc2ccccc12	-4
Cc1cnn(CCCNC(=O)NC23CC4CC(CC(C4)C2)C3)c1	15
C[C@@H]1CCC2C(C)(C)[C@H](O)CC[C@]2(C)[C@@]12Cc1c(O)cc3c(c1O2)CNC3=O (some centres undefined)	11
COc1ccc(NC(=O)Nc2cccc3c2O[C@H](CN(C)C(=O)Nc2ccc4c(c2)OCO4)[C@H](C)CN([C@H](C)CO)C3=O)cc1	0
C[C@@H]1CN([C@@H](C)CO)C(=O)c2cccc(N(C)C)c2O[C@H]1CN(C)S(=O)(=O)c1ccccc1	7
Cc1ccc(NC(=O)Cn2nc([N+](=O)[O-])c(Br)c2C)cc1C	28
COc1ccc(F)cc1S(=O)(=O)N1CCCN(S(=O)(=O)c2cc(F)ccc2OC)CC1	42
C[C@H](CO)N1C[C@H](C)[C@@H](CN(C)S(C)(=O)=O)Oc2ccc(NC(=O)Nc3ccc(C(F)(F)F)cc3)cc2C1=O	26
CCOC(=O)c1cc(Sc2ccccc2NC(=O)c2ccccc2)cc(C(=O)OCC)n1	-26
Cc1noc(C)c1NC(=O)Nc1cccc2c1O[C@@H](CN(C)Cc1ccc3c(c1)OCO3)[C@H](C)CN([C@@H](C)CO)C2=O	19
C[C@@H]1CN([C@@H](C)CO)C(=O)c2cc(NC(=O)Nc3ccccc3)ccc2O[C@@H]1CN(C)Cc1ccc2c(c1)OCO2	5
C[C@H]1CN([C@@H](C)CO)C(=O)c2cc(NC(=O)Nc3ccccc3)ccc2O[C@@H]1CN(C)Cc1ccncc1	-6
O=C(CCN1C(=O)c2ccccc2C1=O)Nc1ccccc1C(=O)N1CCOCC1	-6
(cont.)
SMILES	NOMO-1 viab
COc1cc(OC)c(C2=NOC(C(=O)Nc3sc4c(c3C#N)CCCC4)C2)cc1Cl (centres undefined)	-10
O=[N+]([O-])c1ccccc1NCCNS(=O)(=O)c1ccc(Cl)c(Cl)c1	14
C[C@H](CO)N1C[C@H](C)[C@@H](CN(C)CC2CCCCC2)Oc2c(NC(=O)c3ccc(-c4nccs4)cc3)cccc2C1=O	104*
C=CCc1ccc(O[C@@H]2O[C@H](CO[C@@H]3O[C@@H](C)[C@H](O)[C@@H](O)[C@H]3O)[C@@H](O)[C@H](O)[C@H]2O)c(O)c1	7
Cc1cc(C(=O)Nc2cccc3c2O[C@H](CN(C)C(=O)NC(C)C)[C@H](C)CN([C@H](C)CO)C3=O)n(C)n1	5
C[C@H]1CN([C@@H](C)CO)C(=O)Cc2cc(NC(=O)Nc3ccc4c(c3)OCO4)ccc2O[C@@H]1CN(C)Cc1ccncc1	9
N#CSCC(=O)C12CC3CC(CC(C3)C1)C2	113*
C[C@@H]1CN([C@@H](C)CO)C(=O)Cc2cc(NC(=O)Cn3cnnn3)ccc2O[C@@H]1CN(C)C(=O)Nc1ccc2c(c1)OCO2	-5
Cn1c(O)c(C=Nc2cccc(CO)c2)c2ccccc21	26
C[C@@H]1CCCCO[C@@H](CN(C)S(C)(=O)=O)[C@@H](C)CN([C@H](C)CO)C(=O)c2cc(N(C)C)ccc2O1	29
C[C@@H]1CN([C@@H](C)CO)C(=O)c2cccc(NC(=O)c3ccncc3)c2O[C@H]1CN(C)S(=O)(=O)c1cn(C)cn1	-14
Cc1ccc(S(=O)(=O)N2CCN(C(=O)CSc3nnc4sc5ccccc5n34)CC2)cc1	23
COc1ccc(S(=O)(=O)Nc2ccc3c(c2)C(=O)N([C@H](C)CO)C[C@@H](C)[C@H](CN(C)S(=O)(=O)c2ccccc2)O3)cc1	15
Cc1cc(NC(=O)Cn2nc([N+](=O)[O-])cc2C)ccc1Br	27
COc1cc(NC(=O)CCN2CCOCC2)cc(OC)c1	15
C[C@@H]1CN([C@H](C)CO)C(=O)Cc2cc(NS(=O)(=O)c3ccc(F)cc3)ccc2O[C@@H]1CN(C)S(=O)(=O)c1ccc(F)cc1	4
O=C(C/C(=C1/Cc2ccccc2C1=O)c1ccccc1)c1ccccc1	?
C[C@@H]1CN([C@@H](C)CO)C(=O)c2cccc(NC(=O)Nc3ccccc3)c2O[C@@H]1CN(C)C	6
C[C@@H]1CN([C@H](C)CO)C(=O)Cc2cc(NS(C)(=O)=O)ccc2O[C@@H]1CN(C)C(=O)Nc1ccc(C(F)(F)F)cc1	25

3 entries from above, sorted by molecular weight, ascending:
SMILES	NOMO-1 viab
COc1cc(NC(=O)CCN2CCOCC2)cc(OC)c1	15
Cc1cc(NC(=O)Cn2nc([N+](=O)[O-])cc2C)ccc1Br	27
C[C@@H]1CN([C@H](C)CO)C(=O)Cc2cc(NS(=O)(=O)c3ccc(F)cc3)ccc2O[C@@H]1CN(C)S(=O)(=O)c1ccc(F)cc1	4

High-throughput results: PubChem, Broad Institute
